Screens deposited in PubChem by Johns Hopkins Ion Channel Center.
KCNQ2 pot: potentiators of rat KCNQ2 potassium channel. AID 2239, 2010. B-score at 10 µM. hit rate 0.54% among 310,000. CHO-K1 KCNQ2, FluxOR thallium flux fluorescence; hits give high values;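 active means fluorescence ratio B-score at least 3 SD of library B-scores, with initial fluorescence B-score within 3 SD, cut at about 5.3 in these data; same plate scores as AID 2156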;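 further: B-score of peak minus minimum over baseline fluorescence ratio after K+ and Tl+ stimulus; positive B-score means potentiation of KCNQ2 with more thallium influx and brighter signal; only the inactives scoring about 0 or higher are listed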
Target sequence (O88943 whole entry, looked up): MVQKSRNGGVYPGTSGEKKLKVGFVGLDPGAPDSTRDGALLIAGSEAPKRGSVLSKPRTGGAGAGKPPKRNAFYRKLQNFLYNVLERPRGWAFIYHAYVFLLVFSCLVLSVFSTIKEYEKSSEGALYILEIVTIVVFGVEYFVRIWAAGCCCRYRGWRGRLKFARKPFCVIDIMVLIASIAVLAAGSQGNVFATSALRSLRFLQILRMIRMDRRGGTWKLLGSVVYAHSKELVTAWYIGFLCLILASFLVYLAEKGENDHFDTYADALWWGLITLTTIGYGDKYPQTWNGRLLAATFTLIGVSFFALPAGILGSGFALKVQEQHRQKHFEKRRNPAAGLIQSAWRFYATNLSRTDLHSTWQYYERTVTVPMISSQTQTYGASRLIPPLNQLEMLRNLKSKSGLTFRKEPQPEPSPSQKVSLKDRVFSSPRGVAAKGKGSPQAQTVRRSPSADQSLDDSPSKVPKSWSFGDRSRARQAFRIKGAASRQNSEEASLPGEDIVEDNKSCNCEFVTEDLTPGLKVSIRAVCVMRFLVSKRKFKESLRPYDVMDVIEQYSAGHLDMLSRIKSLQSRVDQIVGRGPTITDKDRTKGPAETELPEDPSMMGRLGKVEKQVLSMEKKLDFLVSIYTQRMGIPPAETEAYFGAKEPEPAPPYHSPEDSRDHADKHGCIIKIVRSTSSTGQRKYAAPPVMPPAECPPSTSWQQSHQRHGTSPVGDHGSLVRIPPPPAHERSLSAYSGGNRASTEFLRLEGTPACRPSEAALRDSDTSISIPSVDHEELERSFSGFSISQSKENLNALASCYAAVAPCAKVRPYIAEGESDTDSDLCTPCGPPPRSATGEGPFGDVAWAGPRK
KCNQ2 pot baseline: further read-out of KCNQ2 pot, marked with its call; B-score; compound at 10 µM; measured here: initial fluorescence intensity artifact check;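 brightness before thallium and not channel activity; 0 = typical well and far values either way flag optical interference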
Numbers without * were called inactive; · = not tested or not shown.

The opening 2 entries (preview)
SMILES	KCNQ2 pot	KCNQ2 pot baseline
Cc1sc2c(c1C)C(c1cccs1)=NCC(=O)N2CC(=O)NCc1cccs1	3.56	0.01
O=C(Oc1ccc([N+](=O)[O-])cc1)N1CCC(N2CCCCC2)CC1	2.05	-0.71

Results, previewed entries included:
SMILES	KCNQ2 pot	KCNQ2 pot baseline
Cc1sc2c(c1C)C(c1cccs1)=NCC(=O)N2CC(=O)NCc1cccs1	3.56	0.01
O=C(Oc1ccc([N+](=O)[O-])cc1)N1CCC(N2CCCCC2)CC1	2.05	-0.71
CO[C@H]1[C@@H](OC)CC(OC2OC(CO)C(O)C(O)C2O)/C(=C\C#N)[C@@H]1O (stereo partly specified)	1.02	1.09
COc1cccc(CN2CC=C(c3ccc(F)cc3)CC2)c1	1.39	-0.19
O=C(c1cc2cc3ccc(Cl)cc3nc2o1)N1CCC2(CC1)OCCO2	0.41	-1.37
O=C1NC(=O)N(CCc2ccc(F)cc2)C(=O)/C1=C/c1cccs1	0.58	0.03
CC(=O)N1CN2CN(C(C)=O)CC(C(=O)c3ccccc3)(C2)C1	0.04	1.48
Cc1ccc2c(c1)CC1(CN2C)C(=O)NC(=O)N(CCc2ccccc2)C1=O (stereo unspecified)	0.08	-2.39
COCCOC(=O)c1c(C)oc2ccc(OC(=O)N(C)C)cc12	0.41	0.49
CCc1ccc(C2=NN(CCC(=O)N3CCC4(CC3)OCCO4)C(=O)CC2)cc1	0.19	0.45
CCN(CC)c1ccc(N=Cc2c(O)n(Cc3ccccc3)c(=O)[nH]c2=O)cc1	1.03	·
COc1ccc(C(=O)NC(=S)N2C[C@H]3C[C@H](C2)c2cccc(=O)n2C3)cc1	0.12	0.02
CCN1CCN(Cc2cc(C(C)(C)C)c(O)c(C(C)(C)C)c2)CC1	0.06	0.68
COc1cc(C=C2C(=O)NC(=O)NC2=O)ccc1OS(=O)(=O)c1ccccc1[N+](=O)[O-]	0.49	-0.91
CC(=NCCC1=CCCCC1)c1c(O)n(-c2ccccc2)c(=O)[nH]c1=O	0.13	1.21
Cc1cc(C(=O)Nc2ccc3c(c2)OCCO3)nn1C(C)(C)C	0.16	-0.98
COc1cc(C(=O)OC2C[C@H]3CC[C@@H](C2)N3C)ccc1O (stereo partly specified)	0.68	-0.1
O=C(C(=O)N1CCOCC1)c1cn(Cc2ccccc2Cl)c2ccccc12	1.58	-0.44
O=c1cccc2n1CC1CC2CN(S(=O)(=O)c2ccccc2)C1 (stereo unspecified)	0.23	3.84
CC/C(=N\N1CCCCCC1)c1c(O)n(-c2ccccc2C)c(=O)[nH]c1=O	1.6	-0.51
Cc1ccc(N2C(=O)NC(=O)/C(=C/c3ccc(-c4ccc(C(=O)O)c(Cl)c4)o3)C2=O)cc1	0.28	1.6
O=c1[nH]c(O)c(N=Nc2ccc(S(=O)(=O)N3CCOCC3)cc2)c(=O)[nH]1	0.71	-0.31
CC(=O)c1cccc(OCC(O)CN2CC=C(c3ccccc3)CC2)c1 (stereo unspecified)	1.84	-2.42
CC(C)OP(=O)(OC(C)C)C(O)c1ccc(Br)cc1 (stereo unspecified)	0.08	-0.42
Cc1c(C=C2C(=O)NC(=O)NC2=O)c(=O)n(-c2ccccc2)n1C	0.04	-1.99
O=[N+]([O-])c1ccc(N2CCOCC2)c2cccnc12	2.04	-0.78
O=C(N/N=C/c1c(O)n(CCc2ccc(F)cc2)c(=O)[nH]c1=O)c1ccncc1	1.48	0.61
O=C(Nc1cccc(OC(=O)N2CCCCC2)c1)N1CCOCC1	0.02	0.18
CCCCNS(=O)(=O)c1ccc(OCC(=O)N2CCN(Cc3ccc4c(c3)OCO4)CC2)cc1	1.95	-0.5
COc1ccc2c(c1OC)C(=O)OC2c1c(O)n(C2CCCCC2)c(=O)[nH]c1=O (stereo unspecified)	0.22	0.3
CCC[C@H](N[C@@H](CCC)[C@H](O)c1ccccc1)[C@H](O)c1ccccc1	0.46	0.8
CN1CCC2(CC1)NC(=O)C1=C(CN(C)CC1)N2	0.88	-1.41
CCN1C(=O)C(=Cc2cc(C)n(C3CC3)c2C)C(=O)N(CC)C1=S	0.61	-2.57
Cc1c2cnn(CC(=O)N3CCC4(CC3)OCCO4)c(=O)c2c(C)n1Cc1ccc(F)cc1	2.19	0.5
O=C(O)c1ccccc1N=Nc1c(O)[nH]c(=O)[nH]c1=O	0.01	-0.68
CC1(C)CC(n2[nH]c(=O)c3c2NC(=O)CSC3c2ccccc2)CCO1 (stereo unspecified)	0.58	1.86
COc1cc(C(CN)CC(=O)O)ccc1O (stereo unspecified)	1.14	0.03
C1=C(c2c[nH]c3ccccc23)CCN(Cc2ccccc2)C1	1.46	1.65
NC(N)=N/N=C/c1ccc(N2CCOCC2)cc1	0.9	-2.48
O=[As](O)(O)c1ccc(N=Nc2ccc(O)cc2)cc1	1.58	0.55
CCn1nc(/C=C/c2ccccc2)nc2c(=O)n(C)c(=O)nc1-2	7.86*	-1.59*
CC(C)(C)N(NC(=O)c1ccccc1)C(=O)c1ccccc1	0.01	-1.4
COCCN1C(=O)NC(=O)/C(=C\c2ccc(F)cc2)C1=O	0.18	-0.32
CC(=O)Nc1ccc(N=Cc2c(O)n(Cc3ccco3)c(=O)[nH]c2=O)cc1	1.72	-1.04
Cc1ccccc1CCNCc1cc2cccc(C)c2[nH]c1=O	0.38	-0.64
CCOc1ccc(-n2c(CC)nc3ccccc3c2=O)cc1	0.15	-0.26
CN1CCCN(C(=O)COc2ccc(F)cc2Cl)CC1	0.37	-0.98
COc1ccc(Oc2cc(NC(=O)c3nn(C)cc3[N+](=O)[O-])cc([N+](=O)[O-])c2)cc1	0.36	0.12
Cc1ccccc1CN1CCN(c2ccc(Cl)cc2)CC1	0.04	0.09
Clc1cccc(C2NCCc3[nH]cnc32)c1 (stereo unspecified)	1.06	-0.01
CNC(=S)N1CCN(CCN=Cc2c(O)n(-c3ccc(C)cc3)c(=S)[nH]c2=O)CC1	1.71	0.83
CC(C)[N+](C)(CCC(C(N)=O)(c1ccccc1)c1ccccc1)C(C)C	0.16	0.25
N#Cc1ccccc1Cn1cc(C(=O)c2ccco2)c2ccccc21	0.08	-0.02
c1ccc(CCN2CCC(N3CCN(c4ccccc4)CC3)CC2)cc1	0.29	0.08
CNC(=O)Oc1ccc(N(C)C)cc1C(C)C	2.02	0.82
O=P(/C(=N/O)N1CCCCC1)(N1CCOCC1)N1CCOCC1	0.7	1.68
Cn1c(O)c(C=Nc2cccc(C(F)(F)F)c2)c(=O)n(C)c1=O	1.55	-0.15
O=C1CC(=O)N(c2ccc(Cl)cc2)C(=O)N1	2.29	-0.59
COc1ccc(N2C(=O)NC(=O)/C(=C\c3cn(CC(=O)N4CCOCC4)c4ccccc34)C2=O)c(OC)c1	3.03	0.22
O=C(c1ccc(CS(=O)(=O)c2ccc(Br)cc2)o1)N1CCC2(CC1)OCCO2	1.88	0.22

The list goes on.
SMILES	KCNQ2 pot	KCNQ2 pot baseline
Cc1ccc(S(=O)(=O)N2CCCC2c2cccnc2)cc1 (stereo unspecified)	0.58	-0.67
CCC(=Nc1ccc2c(c1)CCC2)c1c(O)n(C)c(=O)n(C)c1=O	1.4	-0.37
COc1ccc(C(O)c2ccccc2OP(=O)(N(C)C)N(C)C)cc1 (stereo unspecified)	1.55	-1.46
Brc1ccc(CN2CCNCC2)s1	1.98	1.87
Oc1c(Cl)c(Cl)c(Cl)c(Cl)c1Cl	2.41	0.53
CCc1nnc(NS(=O)(=O)c2ccc(N=Cc3c(O)n(-c4ccccc4)c(=O)[nH]c3=O)cc2)s1	0.23	0.73
COC(=O)Cn1cc(C=C2C(=O)N(C)C(=O)N(C)C2=O)c2ccccc21	0.69	-0.83
CN(C)c1nc(N(C)C)nc(N(C#N)CCCl)n1	0.29	-0.24
COc1cc([C@@H]2c3cc4c(cc3[C@@H](OC)[C@H]3COC(=O)[C@H]23)OCO4)cc(OC)c1O	3.74	1.18
CC(N)Cc1c[nH]c2c1ccc1ccccc12 (stereo unspecified)	0.62	-1.53
Cc1cc(OC(=O)N(C)C)n(-c2ccccc2)n1	0.43	0.64
Cc1ccccc1NC1=NCC(C)S1 (stereo unspecified)	1.03	0

Profiles, looked up by structure:
COc1cc([C@@H]2c3cc4c(cc3[C@@H](OC)[C@H]3COC(=O)[C@H]23)OCO4)cc(OC)c1O is entered as KCNQ2 pot = 3.74; KCNQ2 pot baseline = 1.18
CCc1nnc(NS(=O)(=O)c2ccc(N=Cc3c(O)n(-c4ccccc4)c(=O)[nH]c3=O)cc2)s1 is entered as KCNQ2 pot = 0.23; KCNQ2 pot baseline = 0.73

Remaining list, next part
SMILES	KCNQ2 pot	KCNQ2 pot baseline
O=C1NC(=O)N(c2ccc3c(c2)OCO3)C(=O)/C1=C/c1cccs1	0.21	-0.09
COc1ccc(C(O)P(=O)(OC(C)C)OC(C)C)cc1 (stereo unspecified)	0.08	1.7
COc1ccc(CC2(CCc3ccncc3)C(=O)NC(=O)NC2=O)cc1	0.54	0.9
CCOc1cc2c(cc1OCC)-n1cccc1C(c1cccc([N+](=O)[O-])c1)NC2 (stereo unspecified)	0.12	-0.68
CCN1CCN(c2nc3c(c(=O)[nH]2)CCCC3)CC1	0.2	0.16
COC(=O)CCCNC(=O)CN1CC(c2ccccc2)CC1=O (stereo unspecified)	0.62	0.47
O=C1C(c2ccccc2)=C(N2CC2)c2ccccc21	1.12	-0.74
O=C(NC1CN2CCC1CC2)c1cc(Cl)c([N+](=O)[O-])c2nc[nH]c12 (stereo unspecified)	2.2	-2.05
CCOC(=O)c1c(C)n(C(C)C)c2ccc(OC(=O)c3ccc(N4C(=O)CCC4=O)cc3)cc12	0.41	-1
COC(=O)C1=C(c2cc3ccccc3o2)C[C@@H]2CC[C@H]1N2C(=O)NCc1ccco1	0.04	0
O=C(Cc1ccccc1)OCC(=O)N1CCN(S(=O)(=O)c2ccc(Cl)cc2)CC1	0.88	-1.64
O=c1[nH]c(=S)n(Cc2ccc(F)cc2)c(O)c1C=NCC1CCCO1 (stereo unspecified)	1.41	-3.04
COc1ccc2c(CCN)c[nH]c2c1	1.31	0.05
c1ccc2nc(OCCN3CC3)ccc2c1	0.43	1.99
CCCOP(=O)(OCCC)C(NC(=O)c1ccccc1)=C(Cl)Cl	1.92	0.27
Clc1cccc(CN2CCCCC2c2cccnc2)c1 (stereo unspecified)	0.73	-0.98
O=C(O)c1cccc(NC(=O)N2C[C@H]3C[C@@H](C2)c2cccc(=O)n2C3)c1	0.11	4.68
COC(=O)C(C)Oc1cc(C)cc2oc(=O)c3c(c12)CCC3 (stereo unspecified)	0.45	-0.56
NS(=O)(=O)OC(CCc1ccccc1)C(Cl)(Cl)Cl (stereo unspecified)	1.94	1.73
N#CC(c1cccnc1)N1CCOCC1 (stereo unspecified)	0.01	-0.37
Cc1cc(OCC(=O)N2CCCN(C)CC2)ccc1Cl	1.35	0.41
O=C(c1c[nH]cc1-c1ccccc1)c1cccc2ccccc12	1.89	-0.02
CCOC(=O)C(NC(C)=O)C(OC(C)=O)c1cccc(N(CCCl)CCCl)c1 (stereo unspecified)	0.32	-0.8
COC(=O)C1=C(c2cc3ccccc3o2)C[C@@H]2CC[C@H]1N2C(=O)NCc1ccccc1	0.65	-0.98

4 of these compounds in another layout:
> N#CC(c1cccnc1)N1CCOCC1 (stereo unspecified)
- KCNQ2 pot: 0.01
- KCNQ2 pot baseline: -0.37
> Cc1cc(OCC(=O)N2CCCN(C)CC2)ccc1Cl
- KCNQ2 pot: 1.35
- KCNQ2 pot baseline: 0.41
> O=C(c1c[nH]cc1-c1ccccc1)c1cccc2ccccc12
- KCNQ2 pot: 1.89
- KCNQ2 pot baseline: -0.02
> CCOC(=O)C(NC(C)=O)C(OC(C)=O)c1cccc(N(CCCl)CCCl)c1 (stereo unspecified)
- KCNQ2 pot: 0.32
- KCNQ2 pot baseline: -0.8

(listing goes on)
SMILES	KCNQ2 pot	KCNQ2 pot baseline
Cc1cccnc1NC1=NCC(C)S1 (stereo unspecified)	0.51	0
C[C@]12CCC(=O)CC1CCC1C2CC[C@]2(C)C(OC(=O)CCC(=O)O)CCC12 (stereo partly specified)	0.47	0.72
CCCC1C(C#N)=C(N)Oc2c1c(=O)oc1ccccc21 (stereo unspecified)	0.49	0.06
O/N=C/c1c[nH]c2ccccc12	0.82	0.35
O=C1CC(=O)N(c2ccc(Cl)cc2Cl)C(=O)N1	0.17	1.07
Cc1ccc(CS(=O)(=O)Cc2ccc(C(=O)N3CCC4(CC3)OCCO4)o2)cc1	0.11	0.09
C=CCn1c(O)c(C(CC)=NCCc2c[nH]c3ccccc23)c(=O)[nH]c1=O	3.16	0.01
O=C1NC(=O)C(CCc2ccncc2)(Cc2cccc(Cl)c2Cl)C(=O)N1c1ccc(Br)cc1 (stereo unspecified)	2.19	-2.3
CN1CCC(O)(c2ccccc2)C2CCCC21 (stereo unspecified)	0.58	0.75
COc1ccc(CNC(=O)/C=C/c2ccc3[nH]cc(CCN(C)C)c3c2)cc1	2.56	-1.54
CC(=NCC1CCCO1)c1c(O)n(Cc2ccccc2)c(=O)[nH]c1=O (stereo unspecified)	1.41	0.02
C[n+]1c(-c2ccccc2)cc(-c2ccc(O)cc2)cc1-c1ccccc1	0.44	0.01
O=C1C2CCCN2C(c2cccnc2)N1c1ccc(Cl)c(Cl)c1 (stereo unspecified)	0.67	0.27
CCNCC1(c2ccc(OC)c(OC)c2)CCCC1	0.9	-0.19
CC1OC(NCCc2ccccc2)C(O)C(O)C1O (stereo unspecified)	0.8	-1.1
CC[N+](C)(CC)CCCOC(=O)C(O)(c1ccccc1)C1CCCCC1 (stereo unspecified)	0.59	-1.03
CCCCc1ccc(NC2=NCCCS2)cc1	0.09	-0.08
CC(=O)C1(c2ccccc2)CCN(C(=O)C2CCC(=O)N(CCc3cccc(F)c3)C2)CC1 (stereo unspecified)	1.2	1.73

A portion of the library; count on the stated rates, not on these rows.
